# Assay outcomes (PubChem)
# Six1-Eya2 blk: Six1/Eya2 interaction inhibition; hit rate 0.56% among 360,000; activity change, % (concentration not given with the values); AlphaScreen GST-Six1/His-Eya2 binding, biochemical; stronger effect = lower value; control for the full effect not named in the record; Q15475+O00167; in the data active = activity change below about -65%; inconclusive = about -30% to -65%; inactive = above about -30%; note: % is set by controls: 0 for no effect and ±100 for the full control effect
#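 GST-Six1 + His-Eya2 (5X stock: 250/500 nM); Tris pH 8.0, 300 mM NaCl, 0.05% BSA, 0.02% Tween 20; GSH donor/Ni acceptor beads; 1 h 37 °C dark; AlphaScreen readout.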
# D2 agonist: agonists of human D2 dopamine receptor (beta-arrestin); activation, % (test concentration not listed); hit rate 0.084% among 360,000; DiscoveRx PathHunter D2 beta-arrestin, luminescence, 90 min; 100% = 57 uM dopamine signal; P14416; in the data active = activation above about 40%; inconclusive = about 15% to 40%; inactive = below about 15%; note: compound concentration not given in the record; the text of the record calls up to 30% inactive
# Target sequence (P14416 whole entry, looked up): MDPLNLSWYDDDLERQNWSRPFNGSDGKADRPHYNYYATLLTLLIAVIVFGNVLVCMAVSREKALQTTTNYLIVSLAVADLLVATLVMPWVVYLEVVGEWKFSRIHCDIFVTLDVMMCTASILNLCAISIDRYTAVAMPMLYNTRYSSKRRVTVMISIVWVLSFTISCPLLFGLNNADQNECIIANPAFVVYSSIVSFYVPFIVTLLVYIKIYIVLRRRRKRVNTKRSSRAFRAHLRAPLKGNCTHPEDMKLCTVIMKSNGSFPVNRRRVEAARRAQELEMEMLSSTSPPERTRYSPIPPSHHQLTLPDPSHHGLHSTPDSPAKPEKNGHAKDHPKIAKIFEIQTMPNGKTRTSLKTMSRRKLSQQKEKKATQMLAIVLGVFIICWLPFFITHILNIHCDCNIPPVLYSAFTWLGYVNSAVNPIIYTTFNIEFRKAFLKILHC
#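 Agonist mode: compounds alone added to overnight-plated D2 PathHunter cells for 90 min at 37 C, with 57 uM final dopamine (EC100) defining full response. Beta-arrestin recruitment detected by chemiluminescent reagent, read after 1 h at ambient temperature.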
# CtBP-E1A inh: blocks the CtBP interaction with E1A | hit rate 0.49% among 340,000 | AID 651724 | activity change, % (concentration not given with the values) | AlphaScreen GST-E1A/His-CtBP binding, 1536-well; stronger effect = lower value; control for the full effect not named in the record; in the data active means activity change below about -65%; inconclusive means about -30% to -65%; inactive means above about -30%; note: % is set by controls: 0 for no effect and ±100 for the full control effect
#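 Steps: dispense buffer (Tris pH 8.0, NaCl 300 mM, TCEP 1 mM, BSA, Tween 20); add 5X protein mix (GST-E1A, His-CtBP, 125 nM each); pin 23 nL compound; 2 h at 37 °C, dark; add 5X beads (50 ug/mL); 1 h; read.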
# PINK1 modulator: PINK1 expression modulation | PINK1 immunofluorescence, high-content cytometry, 24 h | hit rate 0.2% among 410,000 | Potency, µM (titrated, usually from 76.6 µM), inactives show at the highest dose activation (PINK1 increase), most hits filed as activators; active = well fitted activation curve with a large enough effect; inconclusive = small, poorly fitted or top-dose-only effect; inactive = flat fitted curve, though single readings scatter; cell line not stated here;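 note: potency is the fitted concentration of half-maximal effect; % of control where 0% means no effect; nearly all actives have a fitted effect of over 65% in size; a mitochondrial uncoupler was the plate control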
#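 PINK1 protein, normally rapidly degraded, was detected by immunofluorescence after 24 hour compound treatment of a stable cell line. Titration data (5 concentrations) came from laser-scanning cytometry, with CCCP-treated wells as controls.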
# TRPML1 inh: inhibitors of human TRPML1 channel | Q9GZU1 | TRPML1-inducible cells, Ca2+ dye fluorescence, FDSS; stronger effect = lower value; inhibition of EC80 agonist-evoked calcium signal | activity change, negative = inhibition, % (no concentration beside the values) | hit rate 0.02% among 390,000 | AID 624415; in the data active means activity change below about -50%; inconclusive means about -30% to -50%; inactive means above about -30%;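 note: stimulus is agonist 54-4 at its EC80 concentration; % is set by controls: 0 for no effect and ±100 for the full control effect; compound concentration not given in the record; the text of the record puts the active cut at -80%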
# Target sequence (Q9GZU1 whole entry, looked up): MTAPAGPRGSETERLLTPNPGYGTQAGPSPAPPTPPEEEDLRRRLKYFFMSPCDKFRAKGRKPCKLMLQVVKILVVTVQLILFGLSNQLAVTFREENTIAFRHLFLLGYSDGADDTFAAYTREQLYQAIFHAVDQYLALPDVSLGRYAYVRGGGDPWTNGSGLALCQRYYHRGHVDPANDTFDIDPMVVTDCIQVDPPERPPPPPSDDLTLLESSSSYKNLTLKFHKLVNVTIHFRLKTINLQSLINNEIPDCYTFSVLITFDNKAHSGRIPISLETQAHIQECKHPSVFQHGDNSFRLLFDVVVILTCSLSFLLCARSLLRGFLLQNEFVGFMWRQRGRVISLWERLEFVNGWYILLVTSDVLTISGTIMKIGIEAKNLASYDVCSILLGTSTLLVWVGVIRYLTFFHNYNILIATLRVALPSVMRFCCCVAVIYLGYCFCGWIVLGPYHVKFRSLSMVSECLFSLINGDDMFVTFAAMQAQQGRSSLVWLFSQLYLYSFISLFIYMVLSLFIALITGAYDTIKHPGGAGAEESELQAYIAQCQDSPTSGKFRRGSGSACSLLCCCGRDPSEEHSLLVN
#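 TRPML1-DL cells, Tet-induced overnight (~16 h, 37 °C) at 1,500 cells/well, were loaded with Ca8 no-wash dye plus quencher for 45-90 min at room temperature. Compounds were pinned during FDSS kinetic reading; agonist 54-4 at EC80 (4 uM final) then added.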
# TRPML1 ag: human mucolipin-1 channel agonism; Q9GZU1; TRPML1-expressing cells, Ca2+ dye fluorescence, FDSS; host cell line not named in the record; reference of the full effect not given here; activation, % (concentration not given with the values); hit rate 0.12% among 410,000; AID 624414; in the data active = activation above about 50%; inconclusive = about 30% to 50%; inactive = below about 30%; note: 0% is about no effect; the text of the record puts the active cut at 80%
#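 Kinetic FDSS Ca2+ read in Tet-induced TRPML1-DL cells (ABD Ca8 dye plus quencher, 45-90 min RT loading): baseline, then compound, then 110 s agonist window; EC80 agonist 54-4 at 4uM final added afterwards for a 110 s antagonist window.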
# Numbers without * were called inactive; ? = inconclusive; / = no result given; & = joins results of further samples; [ ] = another dose, or the depositor's remark.
structure	Six1-Eya2 blk	D2 agonist	CtBP-E1A inh	PINK1 modulator	TRPML1 inh	TRPML1 ag
COc1ccc(-n2nnc3c(=O)n(CC(=O)N4CCC(Cc5ccccc5)CC4)cnc32)cc1	1	0.5	6	0.4%	8	-0.3
COc1ccc2c(c1)c(CC(=O)Nc1cc(C)c(OC)c(C)c1)c(C)n2C(=O)c1ccc(Cl)cc1	/	/	/	?	-10	1.0
CCc1cccc(C)c1NC(=O)CSc1nc(C)cc(C)c1C(=O)Nc1ccccc1	/	/	/	2.8%	-6	2.1
O=C(NCC(c1cccs1)N1CCOCC1)c1ccccc1NS(=O)(=O)c1ccc(Cl)c([N+](=O)[O-])c1 (stereo not drawn)	-1	1.1	/	?	8	-0.1
Cc1cc2c(cc1S(=O)(=O)NCc1ccccc1)OCC(=O)N2	0	0.3	-3	-0.2%&1.8%	-8&-5	-0.2&-0.8
O=C(O)CC1C(=O)NCCN1Cc1ccc(F)c(F)c1 (stereo not drawn)	15	-31	0	0.5%	14	-0.1
Cc1ccc2sc(N(CCN(C)C)C(=O)c3ccc4ccccc4c3)nc2c1C	10	5.0	/	2.2%	34	1.2
COc1cc(/C=N/N2C(=O)c3ccccc3C2=O)ccc1O	0	-0.7	3	2.2%	20	0.4
Cc1cc(NC(=O)CSc2nnc(C3COc4ccccc4O3)n2N)no1 (stereo not drawn)	-1	3.2	-1	0.8%	/	/
CCOC(=O)CSc1ncc(-c2ccccc2)nn1	-1	-2.7	-1	-0.5%[38.3 µM]	-12	2.5
Cc1cc(C)cc(SCc2noc(C(=O)NCc3ccccc3)c2C(=O)NCc2ccccc2)c1	4	-5.4	0	0.0%	3	0.1
CC(C)(Oc1ccc(Cl)cc1)C(=O)NCC1CCCO1 (stereo not drawn)	8	0.1	10	5.1%	-1	1.7
Cc1cc(N)nc2nc(C(F)(F)F)nn12	12	-3.7	6	1.3%	-8	-0.6
O=C(COC(=O)Cn1cnc2ccccc21)Nc1cc2c(cc1Cl)C(=O)c1ccccc1C2=O	?	2.0	/	0.4%	-16	3.1
CC(C)c1ccc(C2NC(=S)NC3=C2C(=O)CC(C)(C)C3)cc1 (stereo not drawn)	3	-0.7	1	-1.7%	-17	1.0
COc1ccc(-c2noc(CCCc3ccccc3)n2)cc1OC	29	-3.1	25	-1.0%	1	0.7
CC(=O)Nc1ccc(NC(=O)CSC2=NS(=O)(=O)c3cc(F)ccc3N2)cc1	-2	-2.8	-1	0.1%	3	0.8
CCN(C(=O)CSc1nc2ccccc2nc1Cc1ccccc1OC)c1ccccc1	/	/	/	-0.2%	5	0.8
CCOC(=O)CC(=O)CSc1ncnc2c1nnn2-c1ccccc1	-8	-1.0	-11	1.8%	12	1.0
CCc1ccc2occ(CC(=O)N(Cc3ccc(N(C)C)cc3)C3CCS(=O)(=O)C3)c2c1 (stereo not drawn)	/	/	/	-1.4%	4	0.8
CN(C)/C=N/c1c(C#N)cnn1-c1ccccc1	6	-0.4	7	/	16	0.1
CCOc1ccc(-c2nn(-c3ccccc3)cc2C2NC(=O)NC(C)=C2C(=O)OC(C)C)cc1 (stereo not drawn)	/	/	/	-4.1%	-9	1.0
COCCNC(=O)c1cccc(OC2CCN(Cc3ccc(F)c(OC)c3)CC2)c1	-1	0.7	-7	1.8%	-7	0.4
CC1(Cc2ccc(C(F)(F)F)o2)C(=O)Nc2cc(-c3ccc(F)cc3F)ccc21 (stereo not drawn)	-7	-8.8	1	0.1%	/	0.4
CCCCCOc1ccc(NC(=O)C2OC3OC(C)(C)OC3C3OC(C)(C)OC23)cc1 (stereo not drawn)	11	-3.3	0	17%	-6	1.4
CCN(C(=O)COC(=O)CNC(=O)c1ccccc1C)C1=CCCCC1	10	-3.7	/	1.0%	-6	-0.5
COc1ccc(S(=O)(=O)N2CCN(CC(=O)Nc3c(C)n[nH]c3C)CC2)cc1OC	13	-3.1	-4	0.8%	-9	-0.4
Cc1ccc(NC2CCCN(C(=O)Cc3nonc3C)C2)cc1C (stereo not drawn)	1	2.3	-4	-1.2%	-10	-0.4
Cc1cc(C)nc(SCc2cc(=O)c(OC(=O)c3ccc(Br)o3)co2)n1	-5	2.9	4	-1.2%	73	2.0
CCN(CC)c1ccc(C(=O)n2cnc3ccccc32)cc1	20	-1.7	-14	3.8%	-2	1.7
COc1ccc(CNC(=O)C(c2ccco2)N(Cc2cccs2)C(=O)Cc2cccs2)cc1 (stereo not drawn)	-4	-1.7	-7	-0.2%	12	1.1
COc1ccc(CCC(=O)NCCS(=O)(=O)N2CCN(c3ccccc3OC)CC2)cc1	-1	2.8	2	-0.3%	-27	-0.7
Cn1cc(C(=O)NCCc2ccc(Cl)cc2)c(=O)c2cc(S(=O)(=O)N3CCOCC3)ccc21	/	/	/	3.3%	10	-0.2
COc1ccc(CCNC(=O)C2CCN(S(=O)(=O)c3ccc4c(c3)oc(=O)n4C)CC2)cc1OC	2	3.2	7	-0.6%	-1	0.2
C=CCN1C(=O)CN=C1NCc1ccccc1	0	-3.1	0	-0.3%	39	-0.5
CCOc1ccccc1NC(=O)CSc1c(C)cnc2c1c(=O)n(C)c(=O)n2C	/	/	/	7.2%	-12	0.6

# 7 structures out of the list, sorted by SMILES length, rising:
structure	Six1-Eya2 blk	D2 agonist	CtBP-E1A inh	PINK1 modulator	TRPML1 inh	TRPML1 ag
C=CCN1C(=O)CN=C1NCc1ccccc1	0	-3.1	0	-0.3%	39	-0.5
CCN(C(=O)COC(=O)CNC(=O)c1ccccc1C)C1=CCCCC1	10	-3.7	/	1.0%	-6	-0.5
Cc1cc(C)nc(SCc2cc(=O)c(OC(=O)c3ccc(Br)o3)co2)n1	-5	2.9	4	-1.2%	73	2.0
COc1ccc(CNC(=O)C(c2ccco2)N(Cc2cccs2)C(=O)Cc2cccs2)cc1 (stereo not drawn)	-4	-1.7	-7	-0.2%	12	1.1
COc1ccc(S(=O)(=O)N2CCN(CC(=O)Nc3c(C)n[nH]c3C)CC2)cc1OC	13	-3.1	-4	0.8%	-9	-0.4
Cn1cc(C(=O)NCCc2ccc(Cl)cc2)c(=O)c2cc(S(=O)(=O)N3CCOCC3)ccc21	/	/	/	3.3%	10	-0.2
COc1ccc(CCNC(=O)C2CCN(S(=O)(=O)c3ccc4c(c3)oc(=O)n4C)CC2)cc1OC	2	3.2	7	-0.6%	-1	0.2

# Further entries.
structure	Six1-Eya2 blk	D2 agonist	CtBP-E1A inh	PINK1 modulator	TRPML1 inh	TRPML1 ag
O=C1CCCN1CCc1cccc2ccccc12	4	-4.7	1	-0.9%	4	0.5
CC1(C)Cc2c(sc3nc(-c4cccs4)n(N)c(=O)c23)CO1	-3	-1.0	-4	-1.5%[38.3 µM]	48	1.6
COc1cccc(C(C(=O)NC2CCCCC2)N(C(=O)c2ccccn2)c2cccnc2)c1 (stereo not drawn)	6	-0.5	-9	-0.2%	1	0.1
CC(C)(C)NC(=O)CC1C[C@H](C(=O)N2CCCCC2)[C@@]2(CCc3ccccc3)c3[nH]c4ccccc4c3CCN2C1=O (stereo partly drawn)	3	-3.3	0	-0.1%	21	-0.8
O=C(COC(=O)C1CC1)Nc1ccc([N+](=O)[O-])cc1C(F)(F)F	-1	5.5	7	-0.1%	5	1.5
COC(=O)Cc1c(C)c2ccc(OCc3nn[nH]n3)c(C)c2oc1=O	-16	-1.9	-12	4.9%[38.3 µM]	3	-0.3
Cn1ccnc1-c1nnn(-c2ccc(Cl)c(Cl)c2)n1	3	-0.7	-25	-1.0%	-7	-0.3
Cc1ccc(OCC(=O)Nc2ccc(S(=O)(=O)Nc3cc(C)nc(C)n3)cc2)c(Br)c1	/	/	/	0.7%	4	-0.2
Cc1ccc(S(C)(=O)=O)cc1C(=O)N1CC(C(N)=O)Oc2ccccc21 (stereo not drawn)	-4	-0.7	-2	-0.2%	-5	-0.2
CCC(=O)n1nc(-c2ccccc2)nc1N	0	-1.6	-1	-0.8%	-18	0.4
Cc1cc(C)nc(SCC(=O)Nc2ncc(Cc3cccc(Cl)c3Cl)s2)n1	-1	-4.1	3	20%	2	6.4
O=C(CC1N=C2c3ccccc3N=C(SCc3ccc(F)cc3)N2C1=O)NCc1ccco1 (stereo not drawn)	-23	-2.9	-17	-0.9%	21	-0.6
CCC(=O)Nc1nc(-c2cc([N+](=O)[O-])cs2)cs1	4	1.8	-6	0.8%	15	0.9
CCCN(C)C1CN(Cc2cn(Cc3cccc(Cl)c3)nn2)S(=O)(=O)C1 (stereo not drawn)	12	/	-1	0.2%	/	-0.7
Cc1cc(NS(=O)(=O)c2ccc(NC(=O)c3cc(-c4cccnc4)nc4ccc(Cl)cc34)cc2)no1	-1	-0.8	-1	3.1%[38.3 µM]	22	0.4
Cc1cc(C(=O)N2CCCC(CCC(=O)N3CCN(c4ccccn4)CC3)C2)c(C)o1 (stereo not drawn)	-1	-2.8	-5	1.3%	-8	0.3
COc1cccc(NC(=O)Nc2nccc(C)n2)c1	22	-6.2	/	4.4%	-9	-1.1
O=C(c1cnc2n(c1=O)CCS2)N1CCN(c2ccc([N+](=O)[O-])cc2)CC1	4	0.2	-5	0.4%	-4	0.5
O=C(COC(=O)c1ccc[nH]c1=O)NCC1CCCO1 (stereo not drawn)	-10	9.5	4	-2.8%	38	0.0
O=C(CN1C(=O)NC(c2ccccc2)(c2ccccc2)C1=O)NCCc1ccc(F)cc1	7	-0.3	0	1.0%	19	0.2
O=C(C1CCN(Cc2cccs2)CC1)N1CCN(Cc2ccc3c(c2)OCO3)CC1	2	-1.4	-11	-0.7%	-8	0.2
CCN(CCNC(=O)C1CCN(S(=O)(=O)c2cccc3cccnc23)CC1)c1ccccc1	-9	-3.1	-10	2.3%	8	0.4
CC(C)(C)NC(=O)CN(Cc1cccs1)C(=O)CNS(=O)(=O)c1ccc(F)cc1	0	2.1	-24	1.3%	-18	0.9
COc1cc(CCC(=O)Nc2nnc(C)s2)cc(OC)c1OC	-4	-3.4	3	9.8%	39	0.2
CCCCc1nc(Cl)c(C#N)c2c1CSC(C)(C)C2	12	-2.6	/	17%	-2	24
CCN(C(=O)COC(=O)/C=C/c1ccc(Cl)c(Cl)c1)c1c(N)n(Cc2ccccc2)c(=O)[nH]c1=O	-2	0.6	/	-0.8%	6	-0.5
CCOC(=O)c1cc(NC(=O)CSc2nnc(CN3CCOCC3)n2C)ccc1Cl	-2	1.4	-1	-1.4%	37	2.8
CC1(C)Cc2c(c(-c3ccccc3)nc3sc4c(=O)[nH]c(=S)[nH]c4c23)CO1	5	1.3	-12	-0.7%	0	0.6
CCOC(=O)N1CCN(C(=S)Nc2cccc(C)c2C)CC1	-2	-1.7	5	-0.4%	36	0.1
